# Assay outcomes as filed in PubChem.
# GIRK2 activ = GIRK2 channel activation | HEK293-GIRK2 thallium flux, Thallos fluorescence | calls only for hits at 25 µM | hit rate 0.05% among 63,000;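 active means among the strongest 0.2% of first-round signals and kept after retests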;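 further: first round at about 10 µM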
# Target sequence (P48051 whole entry, looked up): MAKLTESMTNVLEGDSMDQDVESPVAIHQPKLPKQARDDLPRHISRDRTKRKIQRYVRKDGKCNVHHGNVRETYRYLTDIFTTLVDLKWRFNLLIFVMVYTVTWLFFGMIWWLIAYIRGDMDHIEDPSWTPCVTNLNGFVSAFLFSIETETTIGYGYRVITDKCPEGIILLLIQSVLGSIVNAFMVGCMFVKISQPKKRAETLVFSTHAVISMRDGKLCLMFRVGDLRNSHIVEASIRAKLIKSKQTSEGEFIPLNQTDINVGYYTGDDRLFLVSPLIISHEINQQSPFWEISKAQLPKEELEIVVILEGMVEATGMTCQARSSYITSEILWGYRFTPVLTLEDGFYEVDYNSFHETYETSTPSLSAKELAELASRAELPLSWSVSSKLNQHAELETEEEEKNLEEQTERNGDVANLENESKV
# Calls only; i = inactive. Only part of the results is shown, so the mix of outcomes need not match the whole.
SMILES,GIRK2 activ
N#Cc1ccccc1Cn1cc(-c2nc(-c3ccsc3)no2)ccc1=O,i
COc1ccc(-c2cc3c(=O)n(CC(=O)NCc4ccc5c(c4)OCO5)ccn3n2)cc1OC,i
Cn1c(=O)c(Oc2ccc(F)cc2F)cc2cnc(NC3CCS(=O)(=O)CC3)nc21,i
COc1ccccc1Oc1coc2cc(OC(=O)N3CCOCC3)ccc2c1=O,i
COc1c(C(N)=O)cc(-c2ccc(Cl)cc2)cc1-c1ccc(S(N)(=O)=O)cc1,i
CCOC(=O)C(Sc1nc2c(c(=O)[nH]1)CCCC2)c1ccccc1 (centres undefined),i
COc1ccc(S(=O)(=O)N2CCCOC2CNC(=O)C(=O)NCc2cccnc2)cc1 (centres undefined),i
O=C(NCc1ccccc1)NCC1CCN(Cc2ccsc2)CC1,i
COc1cccc(-n2c(C)cn3c4c(=O)n(CC(=O)OCc5ccccc5)c(=O)n(C)c4nc23)c1,i
O=C(NCc1ccccc1)NNC(=O)c1cccn(Cc2cccc(F)c2)c1=O,i
COc1cccc(Oc2cnc(N)nc2-c2ccc(OC)cc2O)c1,i
CCCNC(=O)c1sccc1S(=O)(=O)N(C)c1ccc(C)c(C)c1,i
Cc1cc(NC(=O)CN2C(=O)CC(c3cccs3)CC2=O)no1,i
O=C(Cn1ncn2nc(-c3ccccc3)cc2c1=O)Nc1ccc2c(c1)OCO2,i
Cc1ccc(C)c2sc(N(C)CC(=O)NCc3cccnc3)nc12,i
O=C(COc1ccccc1F)N1CCC2(CC1)OCCS2,i
Cc1ccc(S(=O)(=O)c2cn(Cc3ccccc3)c3cc(N4CCCC4)c(F)cc3c2=O)cc1,i
Cc1cc(C)c(NC(=O)Cn2nc3c(SCc4ccc(Cl)cc4)nccn3c2=O)c(C)c1,i
Fc1ccc(-c2nn3ncccc3c2-c2ccnc(Nc3ccc4c(c3)OCCO4)n2)cc1,i
NS(=O)(=O)c1ccc(N=Nc2c(O)[nH]c3ccc(C(=O)NCc4ccncc4)cc23)cc1,i
Cc1cc(CN2CCC(CNC(=O)Nc3c(F)cccc3F)CC2)c(C)o1,i
COc1ccc(-c2coc3cc(OCc4ccc(F)cc4)ccc3c2=O)cc1,i
Cc1ccc(NC(=O)c2cc(-c3ccccc3)nn2C)cc1N1CCCC1=O,i
COc1ccc(-c2oncc2-c2ccccc2)c(O)c1,i
CS(=O)(=O)c1ccc(Nc2nc(C(=O)Nc3ccc4c(c3)OCCO4)cs2)cc1,i
# Next part.
SMILES,GIRK2 activ
CCCc1nnsc1C(=O)N1CCC(CSc2nc(C)cs2)CC1,i
COc1ccccc1-c1cc(C(=O)Nc2cccc(NS(C)(=O)=O)c2)[nH]n1,i
CCOc1cc(NS(=O)(=O)c2cc(C(F)(F)F)ccc2Cl)ncn1,i
COc1cc2sc(=NC(=O)c3cc(C)no3)n(CCSC)c2cc1OC,i
COc1ccccc1NCC(=O)Nc1ncc(Cc2cccc(Br)c2)s1,i
COCCN(Cc1ccsc1)S(=O)(=O)c1ccc(OC(F)(F)F)cc1,i
O=C(/C=C/c1ccccc1)N1CC(Oc2nc3c(F)cccc3s2)C1,i
O=C(NCCCc1ccccc1)N1CCCC(c2nnc(C(F)(F)F)o2)C1 (centres undefined),i
COc1ccccc1CNC(=O)c1cc(=O)c(OCc2ccc(F)cc2)co1,i
Cc1ccc(C)c(NC(=O)C(=O)NCCc2ccc3c(c2)CCCN3C)c1,i
Cc1cccc(NC(=O)C2CCN(c3nc4ccsc4c(=O)n3-c3ccccc3)CC2)c1,i
COc1ccc(NC(=O)c2cc3ccccc3oc2=O)cc1N1CCCC1=O,i
COCCCn1c(-c2ccco2)nc2oc3cc(OC)ccc3c(=O)c2c1=O,i
COC(=O)c1ccc(NC(=O)C(=O)NCCc2ccc(Cl)cc2)cc1,i
CCOc1ccc(-c2cc(C(=O)N3CCC(Cn4cccn4)CC3)no2)cc1C,i
CCOc1ccc(N(C)S(=O)(=O)c2ccsc2C(=O)NCc2ccc(SC)cc2)cc1,i
COC(=O)c1ccc(CN2CC(c3nc(-c4ncccn4)no3)C2)o1,i
COc1cccc(CNC(=O)Cn2c3ccc(F)cc3c(=O)n2C(C)(C)C)c1OC,i
CC(C)c1cc(SCC(=O)NC2CCCC2)ncn1,i
Cc1cc(C)c2c(N)c(C(=O)N3CC(C)OC(C)C3)sc2n1 (centres undefined),i
Cc1noc(C2CN(Cc3ccccc3OC(F)(F)F)C2)n1,i
O=C(c1csc(-c2ccccc2)n1)N1CCC(Oc2ccc(Cl)cn2)CC1,i
COCCN(Cc1ccncc1)C(=O)c1cccc(C(F)(F)F)c1,i
Cc1noc(C2(NC(=O)c3cccc(Cl)c3)CCCCC2)n1,i
Cc1nc(-c2cccs2)sc1CNC(=O)Cc1c(C)noc1C,i
# (further entries)
SMILES,GIRK2 activ
O=C(Nc1cccc(C(F)(F)F)c1)c1ccc(CSc2ncccn2)cc1,i
CCCCNC(=O)c1sc2ccccc2c1Cl,i
CCOC(=O)CCC(=O)N1CCN(c2nc3c(C(F)(F)F)cccc3s2)CC1,i
Cc1cc(OCCCn2c(CO)nc3ccccc32)ccc1Cl,i
O=C(NCCOc1cccc2cccnc12)c1ccc(Cn2ccnc2)cc1,i
Cc1ccc(Cl)cc1NC(=O)CN1N=NC2C(=O)N(c3ccc(Cl)cc3)C(=O)C21 (centres undefined),i
Cc1cc(C(=O)NCCOc2ccc(-c3ccc(F)cc3)nn2)no1,i
Cn1nc(-c2ccc(F)cc2)cc1C(=O)NCc1nn(C2CCCC2)c(=O)c2ccccc12,i
O=C1/C(=C/c2cccnc2)SC(=S)N1c1ccc2c(c1)OCO2,i
COc1ccc(CNC(=O)c2cnn3c(C4CC4)ccnc23)cc1OC,i
CC1CCCN(c2cc(SCC(=O)Nc3ccc(Cl)cc3C(F)(F)F)ncn2)C1 (centres undefined),i
O=C(NCCN1CCN(C(=O)CCn2ccc(=O)[nH]c2=O)CC1)c1ccc2c(c1)OCO2,i
COc1ccc(F)cc1S(=O)(=O)NCc1cc(-c2cccs2)n(C2CCCC2)n1,i
COc1ccc(NC(=O)Cn2c(C(=O)NCc3ccccc3F)cccc2=O)cc1Cl,i
Cc1ccc(OCC(O)CN2CCN(c3ccccc3)CC2)cc1 (centres undefined),i
CC(C)(C)OCC(O)CN1CCN(c2cccc(C(F)(F)F)c2)CC1 (centres undefined),i
O=S(=O)(Cc1ccccc1)N1CCN(CC(O)C2CC2)CC1 (centres undefined),i
COC(=O)c1c(NC(C)c2ccc(F)cc2)c2cc(Cl)ccc2[nH]c1=O (centres undefined),i
O=C(NCC1(c2cccs2)CCOCC1)c1cc(C2CC2)on1,i
COc1ccc(NC(=O)Cc2nnc(-c3cccc(F)c3)o2)cc1OC,i
CCOc1ccc(-c2noc(CS(=O)(=O)c3ccccc3)n2)cc1,i
O=C(CSc1nnc2ccc3ccccc3n12)NCC1CCCO1 (centres undefined),i
CCC(CC)COC(=O)C(C#N)c1nc2ccccc2nc1N1CCN(CC)CC1 (centres undefined),i
COc1ccc(Br)cc1/C=C1\Oc2cc(OCC(C)=O)ccc2C1=O,i
COc1ccc(S(=O)(=O)Nc2ccccc2C(=O)Nc2ccc([N+](=O)[O-])cc2OC)cc1,i

# Given with values ahead of the structure: two of the compounds above.
GIRK2 activ	Structure
i	N#Cc1ccccc1Cn1cc(-c2nc(-c3ccsc3)no2)ccc1=O
i	Fc1ccc(-c2nn3ncccc3c2-c2ccnc(Nc3ccc4c(c3)OCCO4)n2)cc1

# More compounds follow:
SMILES,GIRK2 activ
CCOC(=O)Cn1c(=NC(=O)c2nn(C)cc2C)sc2cc(OC)ccc21,i
CN1Cc2cc3c(cc2CCC(=O)c2cc4c(cc2C1)OCO4)OCO3,i
O=C(CC1CCCC1)NCC1(c2ccccc2)CCOCC1,i
O=S(=O)(NCc1cccs1)C1CC1,i
Cc1ccccc1NC(=O)NCC1CCN(Cc2ccco2)CC1,i
CC(C)(C)C(O)CCNC(=O)c1cnccn1 (centres undefined),i
Cc1cc(C)n(-c2ccc(=O)n(C(C)C(=O)Nc3cc(C)on3)n2)n1 (centres undefined),i
COc1ccc(OC)c(-n2c(C)cn3c4c(=O)n(CC(N)=O)c(=O)n(C)c4nc23)c1,i
CCOC(=O)c1csc(NC(=O)C2CCN(c3ccc(-c4ccco4)nn3)CC2)n1,i
COc1cc2nc3sc(Nc4ccc(Br)cc4)nn3c(=O)c2cc1OC,i
CCOc1ccc(-c2csc(-n3nc(C)cc3NC(=O)Cc3cccs3)n2)cc1,i
COc1ccc(Cl)cc1NC(=O)NCCCn1ccnc1-c1ccccc1,i
Cc1csc(SCC2CCN(C(=O)c3ccc(Br)o3)CC2)n1,i
COC(=O)C1c2ccsc2CCN1C(=O)C1CC(=O)N(C)C1 (centres undefined),i
Cc1nc(-c2ccccc2F)sc1CNC(=O)CSc1nc2ccccc2s1,i
COC(=O)C1=C(N)OC2=C(C(=O)CC(C)(C)C2)C1c1cccs1 (centres undefined),i
CCC(C)n1c(=O)c2ccccc2n(Cc2nc(-c3ccccc3Cl)no2)c1=O (centres undefined),i
COc1ccc(Cl)cc1NC(=O)CN1CCN(S(=O)(=O)c2ccccc2)CC1,i
O=C(Nc1cccc(C(F)(F)F)c1)N1CCN(Cc2nc3ccccc3[nH]2)CC1,i
COC(=O)c1ccccc1NC(=O)c1sc2nc(C)ccc2c1N,i
CC(=O)Nc1ccc(C(=O)NCCNC(=O)c2ccc(-n3cccn3)nn2)cc1,i
COC(=O)c1ccc(S(=O)(=O)NCC2CCN(C(=O)c3ccoc3)CC2)cc1,i
O=C(CCn1nc(-c2ccc(F)cc2)ccc1=O)N1CCN(c2ccccn2)CC1,i
Cc1sc(NC(=O)c2ccc(C#N)cc2)c(-c2nc3ccccc3s2)c1C,i
O=C(CN1CCN(C(=O)c2c[nH]c3ccccc23)CC1)c1cccs1,i
# More structures follow.
SMILES,GIRK2 activ
COc1cccc(CNC(=O)c2nnn(-c3ccc(F)cc3)c2-c2ccncc2)c1,i
COCCN(Cc1ccsc1)C(=O)c1cc(Cl)ccc1Cl,i
N#CC(C#N)=C(N)/C(C#N)=C/c1cc(O)c(O)c(O)c1,i
Cc1ccc(S(=O)(=O)n2nc(C)c(Cl)c2C)c(C)c1,i
COc1ccc(OC)c(NC(=O)CSc2nc3cc(-c4ccccc4)sc3c(=O)n2C)c1,i
O=c1c2ccccc2oc2nc(-c3ccccc3)n(Cc3ccccc3)c(=O)c12,i
Cc1ccccc1-n1c(C)c(C)n2c3c(=O)n(CC(=O)OCc4ccccc4)c(=O)n(C)c3nc12,i
O=c1cc(-c2ccc(O)c(O)c2)c2c(O[C@@H]3O[C@H](CO)[C@@H](O)[C@H](O)[C@H]3O)cc(O)cc2o1,i
O=C(Nc1nnc(-c2cc3ccccc3o2)o1)Nc1ccccc1C(F)(F)F,i
COc1ccc(-c2noc(-c3ccc(=O)n(CC(=O)NC4CCCCC4)c3)n2)cc1,i
CC1(C)CC(NS(=O)(=O)c2cccc3ccccc23)CC(C)(C)N1,i
COc1ncccc1C(=O)N1CCN(CCNC(=O)c2cccs2)CC1,i
O=S(=O)(Cc1ccccc1)NC1CCN(c2ccc(-c3cccc(F)c3)nn2)CC1,i
O=C1CCS(=O)(=O)N1c1ccc(S(=O)(=O)Nc2ccccc2Cl)cc1,i
CC(C)CNC(=O)c1c(N)n(/N=C\c2cccc(O)c2)c2nc3ccccc3nc12,i
COc1ccc(CC(=O)Nc2sc3c(c2-c2nc4ccccc4s2)CCN(C(C)C)C3)cc1,i
CC(=O)Cn1c(=O)c2c(nc3n(C4CCCCC4)c(C)cn23)n(C)c1=O,i
Cc1ccc(C(O)CNC(=O)C(=O)Nc2cc(Cl)ccc2C#N)o1 (centres undefined),i
C#CCn1c(=NC(=O)CCS(=O)(=O)Cc2ccccc2)sc2cc(F)ccc21,i
COc1ccc(-c2ccc(=O)n(CCNS(=O)(=O)c3ccc(Oc4ccccc4)cc3)n2)cc1,i
CCOc1ccccc1Nc1nnc(Cc2ccc(OC)cc2)c(=O)[nH]1,i
Cc1ccccc1NC(=O)CN1C(=O)c2ccccc2OC(C)C1=O (centres undefined),i
O=C(CN1CCC(Cn2cnc3ccccc32)CC1)NCc1ccco1,i
COc1ccc(OC)c(-c2ccc(N3CCN(S(=O)(=O)c4cccnc4)CC3)nn2)c1,i
Cc1csc(C(=O)NCC#CCOc2ccccc2C(N)=O)c1,i
# (continued)
SMILES,GIRK2 activ
O=C(Nc1ccc2c(c1)OCO2)N(CCc1cccs1)C1CC1,i
COc1ccc(-c2noc(-c3c(C)cc(C)n(CC(=O)NCc4ccccc4)c3=O)n2)cc1,i
Cn1nc(-c2cccs2)cc1C(=O)N1CCCCCC1,i
CCOC(=O)Cn1c(=O)c2c(nc3n(-c4cc(C)cc(C)c4)c(-c4ccccc4)cn23)n(C)c1=O,i
FC(F)(F)c1cc(-c2cccs2)nc(SCc2nc3ccccc3[nH]2)n1,i
N#Cc1cccc(C(=O)NCCCCN2CCCC2)c1,i
O=C(CN1CCC(Cn2c(C(F)(F)F)nc3ccccc32)CC1)Nc1nccs1,i
CCOC(=O)c1cnn(-c2ccc(C(=O)Nc3cccc(C)c3C)cn2)c1N,i

# Grouped by structure: the entries above containing a tert-butyl group (3)
SMILES,GIRK2 activ
COc1cccc(CNC(=O)Cn2c3ccc(F)cc3c(=O)n2C(C)(C)C)c1OC,i
CC(C)(C)OCC(O)CN1CCN(c2cccc(C(F)(F)F)c2)CC1 (centres undefined),i
CC(C)(C)C(O)CCNC(=O)c1cnccn1 (centres undefined),i

# In another format: entries from further up.
GIRK2 activ	Compound
i	COc1ccc(-c2noc(-c3c(C)cc(C)n(CC(=O)NCc4ccccc4)c3=O)n2)cc1
i	CCOC(=O)Cn1c(=O)c2c(nc3n(-c4cc(C)cc(C)c4)c(-c4ccccc4)cn23)n(C)c1=O
i	FC(F)(F)c1cc(-c2cccs2)nc(SCc2nc3ccccc3[nH]2)n1
i	CCOC(=O)c1cnn(-c2ccc(C(=O)Nc3cccc(C)c3C)cn2)c1N
i	O=C(Nc1ccc2c(c1)OCO2)N(CCc1cccs1)C1CC1
i	O=C(CN1CCC(Cn2c(C(F)(F)F)nc3ccccc32)CC1)Nc1nccs1
